# Screening data deposited in PubChem by ICCB-Longwood Screening Facility, Harvard Medical School.
# MgrA-DNA mod: S. aureus MgrA activity modulators, primary screen, biochemical, S. aureus Newman, fluorescence polarization. MgrA-DNA binding. inhibition, %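 (about 10 µg/mL by stock and volumes)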. 84,000 compounds, 0.13% hits. AID 602314, 2012;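 active = above 50% in either of two replicates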;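 also: 0% = protein plus DNA without compound and 100% = DNA alone without protein; higher means less MgrA bound to DNA so lower polarization; one replicate is shown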
# S aureus helic: inhibitors of S. aureus replicative helicase, primary screen, biochemical, fluorescence unwinding readout | inhibition, %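 (tested at about 80 µM)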 | replicative DNA helicase (DnaC/DnaB), Staphylococcus aureus | 120,000 compounds, 0.05% hits | purified S. aureus helicase, fluorescence unwinding assay; about half of the hits fall short of the stated cut;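 active = both duplicates at 50% or more, or one of them with a favoured structure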;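 also: 0% = mean of negative control wells and 100% = mean of positive control wells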
# * hit, by the source's call; nt = no result given; & = joins results of further samples. These rows are one share of the data (hit frequency here may not be typical).
# The line under a structure holds: S aureus helic | MgrA-DNA mod
CC(=O)Oc1ccc2c(=O)c(-c3csc(C)n3)coc2c1
    -15.0 | nt
O=C(c1ccc(S(=O)(=O)N2CCCCC2)cc1)N1CCN(Cc2nc3ccccc3s2)CC1
    2.0 | nt
CC1(C)OC(=O)NC1=O
    nt | -0.2&1.3
O=S(=O)(Nc1nccs1)c1ccc(N=Cc2cc(Br)ccc2O)cc1
    nt | 3.0
Cc1ccc(Oc2ccccc2)c(NC=O)c1
    7.0 | nt
Cc1nnsc1C(=O)NCc1c(F)cccc1Cl
    nt | -0.7
Cc1cc(C)cc(NC(=O)c2cc(-c3ccco3)nc3ccccc23)c1
    20.0 | 12.8
Cc1sc2ncnc(OCC(=O)N(C)Cc3ccco3)c2c1C
    19.0 | nt
CC(NCc1ccc(F)cc1)C(=O)NC1CCCCC1 (centres undefined)
    12.0 | -4.6
O=C(Oc1ccccc1)c1cccnc1Oc1ccccc1
    nt | -1.2
Cc1ccc(C(=O)C2C(=O)c3ccccc3C2=O)cc1
    4.0 | 3.8
CCSc1nnc(-c2ccc(OC)cc2)n1C1CCCCC1C (centres undefined)
    -2.0 | nt
Cc1nnc2n1N=C(c1ccc(OC(F)F)cc1)C(C)S2 (centres undefined)
    -4.0 | nt
Cc1ccc(/C(C#N)=C/c2ccco2)cc1
    nt | 0.4
O=C(c1cnn(C(=O)c2ccccc2)c1)c1ccccc1O
    -7.0 | nt
Cc1nnc(Sc2cc(C(=O)NCc3ccccn3)c3ccccc3n2)s1
    6.0 | 0.4
CC(CC(=O)c1cccs1)C(=O)c1ccccc1 (centres undefined)
    nt | -1.7
Nc1nc(-c2csc3ccccc23)cs1
    nt | 2.5
CN1C(=O)/C(=C\c2cccs2)c2ccccc21
    28.0 | -2.0
O=C(NCc1ccco1)C(C(=O)c1ccccc1)n1ccccc1=O (centres undefined)
    -6.0 | -1.4
O=C(OCc1nc2ccccc2s1)C1CCCCC1
    -10.0 | nt
COC(=O)c1ccc2oc(=O)c(S(=O)(=O)c3ccccc3)cc2c1
    7.0 | 1.1
O=C(Nc1ccc2c(c1)OCCO2)C1CCCN(S(=O)(=O)Cc2ccccc2)C1 (centres undefined)
    0.0 | 1.2
Cc1ccc(NC(=O)COC(=O)CSc2n[nH]c(-c3ccccc3)n2)cc1
    -6.0 | 3.2
CCOC(=O)c1cccc(NC(=O)CCn2ccc(C)n2)c1
    0.0 | nt
O=c1oc(-c2cccc(C(F)(F)F)c2)nn1-c1ccc(C(F)(F)F)cn1
    nt | -0.7
C=CCn1c(CNC(=O)c2cccs2)nnc1SCC(=O)Nc1nc2ccccc2s1
    18.0 | 0.1
CCN(CC)C(N)=S
    1.0 | nt
CCn1nnc2cc(C(=O)NCc3ccccc3CN3CCCC3)ccc21
    -14.0 | nt
CCOc1ccc(CNC(=O)CCn2nc(C)cc2C)cc1OC
    20.0 | nt
Cc1nnc(SC(C)C(=O)NCc2ccccc2)[nH]c1=O (centres undefined)
    -6.0 | -0.1
CCNc1nc(Cl)nc(NC2CCCCC2)n1
    12.0 | -1.0
CC(=O)Nc1ccc2c(c1)sc(=NC(=O)c1cccs1)n2C
    -22.0 | nt
Nc1nc(C23CC4CC(CC(C4)C2)C3)[nH]c(=O)n1
    nt | 0.7
CN(C(=O)Nc1ccccc1)C1CCCc2ccccc21 (centres undefined)
    19.0 | nt
CCOc1ccc(C(=O)N2CCN(c3ccccc3)CC2)cc1
    7.0 | -1.7
NCc1ccccc1CC(=O)N[C@@H]1C(=O)N2C(C(=O)O)=C(CSc3nnnn3CC(=O)O)CS[C@H]12
    nt | -3.0
O=C(O)Cn1cc2c(n1)CCCC2
    12.0 | 0.8
O=c1c2ccccc2c(C=NCc2nc3ccccc3[nH]2)c(O)n1-c1ccccn1
    6.0 | nt
CN(C)S(=O)(=O)c1ccc(C(=O)OCCN=C2NS(=O)(=O)c3ccccc32)cc1
    0.0 | nt
CC1(C)CC(CCNC(=O)c2ccc(-n3cnnn3)cc2)CC(C)(C)N1
    9.0 | nt
CCOc1cc(C2Nc3ccccc3NC3=C2C(=O)CC(c2ccc(OC)cc2)C3)ccc1OC(=O)C1CC1 (centres undefined)
    nt | 0.3
O=C(O)C1Cc2ccccc2N1 (centres undefined)
    1.0 | nt
O=C(CN1C(=O)CC(c2ccccc2)Sc2ccccc21)N1CCCCC1 (centres undefined)
    -21.0 | nt
N#CCSc1ncccc1-c1nc2ccccc2[nH]1
    -4.0 | 1.2
Cn1cccc1Cc1nnc(SCC(=O)Nc2ccc3c(c2)OCCO3)n1CCc1ccccc1
    11.0 | 4.8
CC1(C)CC(=O)c2cc(OCC(=O)NC3CC3)ccc2O1
    6.0 | nt
CC(C)CN(C(=O)CSc1ccc2c(c1)OCCO2)c1c(N)n(CC(C)C)c(=O)[nH]c1=O
    6.0 | nt
Cn1c(Cc2nnc(NC3CCCCC3)s2)nc2ccccc21
    7.0 | nt
Cc1cc2cc(CNC(=O)C(C)(C)Oc3ccc(Cl)cc3)ccc2n1C
    2.0 | 0.1

# Other entries.
# The line under a structure holds: S aureus helic | MgrA-DNA mod
CCn1c(C)c(CCC(=O)Nc2ccc(C(=O)OC)cc2)c(=O)n2nc(-c3ccccc3OC)cc12
    -5.0 | 9.1
COc1ccc(C2=NN(CN3C(=O)C(=O)c4ccccc43)C(c3ccccc3Cl)C2)cc1 (centres undefined)
    nt | 4.6
CCC(C)(C)NC(=O)c1ccc2c(c1)OCO2
    15.0 | 1.3
CC(NC(N)=O)C(=O)OCc1ccc(C(C)(C)C)cc1 (centres undefined)
    5.0 | nt
Fc1cccc(Cl)c1CSCc1c(F)cccc1Cl
    nt | 2.0
CN(C(=O)Cn1nc(C(F)(F)F)c2c1CCC2)C1CCCCC1
    17.0 | -0.9
FC(F)(F)Oc1ccc(-c2nnc(-c3ccncc3)o2)cc1
    nt | -1.8
C/C(=N\NC1=NCCN1Cc1ccccc1)c1ccc(C)cc1
    nt | 2.4
CN(C(=O)c1ccc(Cl)cc1Cl)C1CCS(=O)(=O)C1 (centres undefined)
    -24.0 | -0.7
CSc1sc(-c2nc(C)cs2)c(C)c1-c1ccnc(=S)[nH]1
    nt | 0.8
Cc1cccc(COc2cccnc2N)c1
    nt | -2.3
NS(=O)(=O)c1ccc(CNC(=O)COC(=O)C2CC3C=CC2C3)cc1 (centres undefined)
    -8.0 | nt
CCN(/C(N)=N/c1nc(C)cc(C)n1)c1ccccc1
    29.0 | nt
Cn1c(=O)c(=O)n(C)c2cc(S(=O)(=O)NCCCN3CCN(Cc4ccccc4)CC3)ccc21
    -8.0 | nt
CCC(N=c1cc(-c2ccc(OC)cc2)oc2ccc(C)cc12)C(=O)O (centres undefined)
    14.0 | -1.0
CC(=O)N1CCc2ccccc21
    -3.0 | 0.2
COc1cc(NC(C)=O)cc(OC)c1
    nt | -3.3
CCC(Cc1ccccc1)NC(=O)C1CC1 (centres undefined)
    5.0 | -1.1
Oc1ccc2ccccc2c1C(N=Cc1ccc(C(F)(F)F)cc1)c1ccc(C(F)(F)F)cc1 (centres undefined)
    nt | -1.6
COCc1cnc(C)nc1N
    9.0 | -1.4
Cc1ccc(-n2c(C)cc(/C=N/O)c2C)cc1
    -16.0 | nt
CCCc1[nH]nc2c1C1(CCN(C(C)=O)CC1)C(C#N)=C(N)O2
    3.0 | -0.5
N/C(=N/O)C(c1ccccc1)c1ccccc1
    16.0 | 13.6
Cc1cccc2nc3c(nc12)CCCC3
    -11.0 | nt
COc1cc(NC(=S)N(N)CCO)c(OC)cc1Cl
    15.0 | nt
COC(=O)c1ccc(NC(=O)COc2ccc3ccccc3c2Br)cc1
    -12.0 | -2.6
Cc1nnc(SCC(=O)c2ccc3c(c2)OCCO3)o1
    -1.0 | 0.9
CCN(CC(=O)Nc1ccc2c(c1)OCCO2)C(=O)c1cnc(SC)n1-c1ccccc1
    -2.0 | nt
COc1ccc(NC(=O)C2CCCN(S(=O)(=O)c3ccc4c(c3)oc(=O)n4C)C2)cc1Cl (centres undefined)
    12.0 | -2.0
CCC(C)(CC(=O)O)Cc1nc2ccccc2s1 (centres undefined)
    -20.0 | nt
Cc1nc2c(C(=O)NCCc3ccccc3)c[nH]n2c(=O)c1Cl
    6.0 | nt
N#CC1c2ccc(Br)cc2C=CC1c1ccccc1 (centres undefined)
    -11.0 | -0.8
CC(C)(C)CC(C)(C)NC(=O)c1cccnc1Oc1ccccc1
    nt | -0.6
O=C(NCc1ccco1)C1CCC(N2C(=O)c3ccccc3C2=O)CC1 (centres undefined)
    1.0 | 0.7
CC1CN(CC(=O)NC2CCCCC2)CC(C)O1 (centres undefined)
    5.0 | nt
O=C1CC(=O)N(c2ccccc2)N1c1ccccc1
    10.0 | 0.2
COc1ccc(CCn2c(C)cc(C3=NNC(=NC4CC4)SC3)c2C)cc1
    -4.0 | nt
Cc1ccc2c(c1)NC(=O)C(CCCl)O2 (centres undefined)
    nt | 0.4
OC(CSc1nccc(-c2ccc3c(c2)OCCO3)n1)C(F)(F)F (centres undefined)
    nt | -0.9
CNS(=O)(=O)c1ccc2[nH]c(=O)[nH]c2c1
    -16.0 | -0.7
CC(C(=O)NCc1ccco1)n1c(-c2cscn2)nc2ccccc21 (centres undefined)
    -6.0 | nt
CCS(=O)(=O)N1CCc2cc(C(=O)CSc3nnc(NC4CC4)s3)ccc21
    16.0 | nt
Cc1[nH]c2ccccc2c1SCC(=O)NN
    nt | 1.2
O=C(CC1c2ccccc2CCN1S(=O)(=O)c1ccc(F)cc1)OC1CCOC1=O (centres undefined)
    15.0 | nt
CCCc1nn(C(=O)c2ccc(Cl)cc2)cc1C(=O)OCC
    nt | -2.8
CC1=Nc2cc(C(=O)NCCCN3CCOCC3)ccc2Sc2c(C)ccc(C)c21
    2.0 | -1.9
CCOC(=O)c1c(C)n(C)c2c1cc(OC(=O)Cc1ccccc1)c1ccccc12
    nt | -0.1
Cc1ccc(/C=C(/C#N)C(=O)Nc2ncc(Cc3cc(Cl)ccc3Cl)s2)o1
    3.0 | nt
O=C(COc1cc(C(F)(F)F)nc2ccccc12)Nc1ccc2c(c1)OCO2
    nt | -3.9
O=C(NC1CC1)C1CCN(c2ncnc3c2sc2cccc(F)c23)CC1
    23.0 | nt

# Following part:
# The line under a structure holds: S aureus helic | MgrA-DNA mod
Cc1nn(-c2ccccc2)c(C)c1C(=O)NNC(=O)c1ccc(Cl)cc1
    nt | -2.1
CCCc1ccc(C(=O)CCC(=O)O)cc1
    nt | -1.3
Cc1ccc2c(c1)c(N=NC(N)=S)c(O)n2CO
    17.0 | nt
O=C(OCCS(=O)(=O)c1ccc(C(F)(F)F)cn1)c1cccc(Cl)c1
    20.0 | nt
c1ccc(-c2nc(CSc3nnc(-c4c[nH]c5ccccc45)o3)cs2)cc1
    7.0 | nt
O=C(COC(=O)c1ccc(Br)o1)c1ccccc1
    -24.0 | -1.0
CCOC(=O)/C=C1\SCC(=O)N1CCN1CCCc2cc(C)ccc21
    9.0 | nt
O=[N+]([O-])c1ccc(Oc2ccc(-c3ccc(Oc4ccc([N+](=O)[O-])cn4)cc3)cc2)nc1
    nt | 2.4
CCCc1nc2ccccc2n1CC(=O)N(COCC)c1c(C)cccc1CC
    9.0 | -1.8
O=C(Nc1ccc2c(c1)OCCO2)c1ccoc1
    nt | 4.3

# Another view of some results above:
SMILES,S aureus helic,MgrA-DNA mod
Cc1ccc2c(c1)c(N=NC(N)=S)c(O)n2CO,17.0,nt
CCOC(=O)/C=C1\SCC(=O)N1CCN1CCCc2cc(C)ccc21,9.0,nt
CCCc1nc2ccccc2n1CC(=O)N(COCC)c1c(C)cccc1CC,9.0,-1.8

# Remaining list, next part
# The line under a structure holds: S aureus helic | MgrA-DNA mod
O=C(Cc1n[nH]c(=O)c2ccccc12)N1CCc2ccccc21
    3.0 | nt
C=CCn1c(=O)c2ccccc2n2c(SCC(=O)N(C)C)nnc12
    3.0 | nt
O=C(c1ccco1)N1CCN(c2ncnc3sc4c(c23)CCC4)CC1
    5.0 | 2.5
COc1ccc(NC(=O)COc2cccc3c2CCNC3=O)c(OC)c1
    6.0 | nt
O=C(CN1C(=O)c2ccccc2C1=O)OC1CSCC1NC(=O)c1ccccc1 (centres undefined)
    5.0 | nt
Fc1ccc(-c2ncc3ccccn23)cc1
    -15.0 | nt
CCOc1ccc(CCNC(=O)c2ccc3c(c2)nnn3CC)cc1OCC
    -9.0 | nt
Cc1nn(CC(=O)NCCCN2CCN(Cc3ccccc3)CC2)c(=O)c2cc(-c3ccccc3)nn12
    7.0 | nt
CC(=O)N1CCC(C(=O)Nc2ccc(N3CCOCC3)cc2)CC1
    nt | -0.2
CCCn1c(SCc2ccc(C(C)(C)C)cc2)n[nH]c1=O
    -5.0 | nt
N#CCCN1c2ccccc2Sc2ccccc21
    15.0 | -1.1
O=C(Nc1ccccc1)C1CCN(C(=O)c2ccco2)CC1
    3.0 | -5.9
CCOC(=O)c1sc(NC(=O)Cn2nc(C)c([N+](=O)[O-])c2C)c(C(=O)OCC)c1C
    nt | 4.8
CCSc1sc(CC)cc1C(N)=O
    3.0 | -0.1
COc1ccc2c3c1CCCN3CCC2
    -27.0 | -1.5
COC(=O)c1cc(S(=O)(=O)N2CCCN(Cc3ccc(F)cc3)C2)c[nH]1
    12.0 | nt
Cc1[nH]n(C)c(=O)c1C(=O)Nc1ccccc1
    nt | 0.4
O=C(NN=C1CCCC1)C1COc2ccccc2O1 (centres undefined)
    -13.0 | nt
O=C(O)CCNCc1c(Cl)cccc1Cl
    3.0 | -1.2
CC1CC(=O)Nc2ccccc2N1C(=O)Cn1nnc(-c2cccs2)n1 (centres undefined)
    -4.0 | nt
CC(=O)Nc1ccc(S(=O)(=O)N2CCCC(CO)C2)cc1 (centres undefined)
    2.0 | nt
Cc1ccc(C(=O)O)cc1-n1cccc1
    7.0 | 0.7
